# DUX4 txn inh = blocks DUX4-driven transcriptional activation. AID 1224904. 293T-iDUX4 ZSCAN4-Gaussia luciferase reporter, 24 h; active compounds read low. 37,000 compounds, 0.8% hits. activity change, negative = inhibition, % (test concentration not listed);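 active = -10% or lower and over 25 points stronger than a control reporter; inconclusive = -10% or lower with a smaller gap; inactive = above -10%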;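 also: 0% = median of neutral control wells and -100% = median of positive control wells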
# DUX4 txn inh difference = recorded beside DUX4 txn inh, whose call it bears; Gaussia minus Italica difference, %; measured here: selective DUX4 reporter inhibition;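 worked out from the two reporters; negative = selective loss of the DUX4 reporter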
# DUX4 txn inh control = further read-out of DUX4 txn inh, marked with its call; activity change, negative = inhibition, %; measured here: Italica tet-on control reporter;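 0 = neutral control and -100 = positive control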
# * hit, by the source's call; ? = inconclusive; . = no result given. Not all compounds are listed; rates above refer to the full screens.
# Results follow in this order: DUX4 txn inh difference, DUX4 txn inh control, DUX4 txn inh
> C[C@H](CO)N1C[C@H](C)[C@@H](CN(C)Cc2ccc(C(=O)O)cc2)Oc2ccc(NS(=O)(=O)c3cccs3)cc2C1=O
  -9, 11, 2
> Cc1cc(C(=O)Nc2ccc3c(c2)C(=O)N(C)[C@@H]2CC[C@H](CC(=O)NC4CCCC4)O[C@H]2CO3)no1
  -3, 1.3, -1
> C[C@@H]1CN([C@H](C)CO)C(=O)Cc2cc(NC(=O)Nc3ccc4c(c3)OCO4)ccc2O[C@@H]1CN(C)S(=O)(=O)c1ccccc1
  -6, -1.3, -7
> CCCN1C[C@@H](C)[C@@H](OC)CN(C)C(=O)c2ccc(NS(=O)(=O)c3cn(C)cn3)cc2OC[C@H]1C
  0, 0.2, 0
> C[C@@H]1CCCCO[C@H](CN(C)C(=O)c2ccccc2)[C@H](C)CN([C@@H](C)CO)C(=O)c2cc(NC(=O)C3CCCCC3)ccc2O1
  -1, 1.2, 1
> O=C(C[C@H]1C[C@@H]2c3cc(NC(=O)NC4CCCC4)ccc3O[C@@H]2[C@H](CO)O1)NCc1ccc2c(c1)OCO2
  -4, 5.2, 1
> CCCC(=O)Nc1ccc2c(c1)C(=O)N(C)[C@@H]1CC[C@@H](CC(=O)N3CCCCC3)O[C@@H]1CO2
  3, -0.1, 3
> O=C(O)C[C@@H]1C[C@@H]2c3cc(NC(=O)NC4CCCC4)ccc3O[C@@H]2[C@H](CO)O1
  -8, 3.6, -4
> O=C([C@@H]1[C@@H](CO)[C@@H]2Cn3c(cccc3=O)[C@H]1N2Cc1cccc(Cl)c1)N1CCOCC1
  1, 0.3, 1
> C[C@@H](NC(=O)C[C@@H]1C[C@H]2c3cc(NC(=O)c4cccnc4)ccc3O[C@H]2[C@@H](CO)O1)c1ccccc1
  8, -4.2, 4
> C[C@H](C(=O)N(C)C[C@@H]1OCc2ccccc2-c2c(n(C)c3ccccc23)C(=O)N([C@@H](C)CO)C[C@H]1C)c1ccccc1
  ., ., ?
> COc1ccc2c3c(n(C)c2c1)[C@@H](CO)N(C(=O)c1ccc(F)cc1)CC31CN(C(C)=O)C1
  21, -4.1, 17
> CC(=O)N1CCCCN2[C@H](CO)[C@H](c3ccc(-c4ccncc4)cc3)[C@H]2C1
  12, 25, 37
> O=C(C[C@H]1CC[C@@H]2[C@H](COC[C@H](O)CN2C(=O)c2ccccc2)O1)Nc1ccccc1
  -1, 0.4, -1
> CN1c2ccc(-c3cccc(C#N)c3)cc2[C@H]2[C@H](CCN2C(=O)CN2CCOCC2)[C@@H]1CO
  9, -7.1, 2
> CNC(=O)C[C@@H]1CC[C@@H]2[C@H](COc3ccc(NC(=O)NC4CCCC4)cc3C(=O)N2C)O1
  3, -0.6, 2
> COc1ccccc1CNC(=O)C[C@@H]1CC[C@H]2[C@@H](COC[C@@H](O)CN2Cc2ccc3c(c2)OCO3)O1
  8, -9.6, -2
> CC(=O)Nc1ccc2c(c1)C(=O)N(C)[C@@H]1CC[C@H](CC(=O)NCc3ccc4c(c3)OCO4)O[C@@H]1CO2
  0, 0.6, 1
> CO[C@@H]1CN(C)C(=O)c2ccc(NC(=O)NC(C)C)cc2OC[C@@H](C)N(S(C)(=O)=O)C[C@H]1C
  -15, 6.6, -8
> CN(C)C(=O)c1ccc(-c2ccc3c(c2)[C@@H]2[C@@H](CCN2C(=O)c2ccccc2F)[C@H](CO)N3)cc1
  ., ., ?
> COc1ccc(NC(=O)Nc2cccc3c2O[C@H](CN(C)C(=O)NC2CCCCC2)[C@@H](C)CN([C@@H](C)CO)C3=O)cc1
  0, 5.4, 5
> CCCNC(=O)N1C[C@@H](O)COC[C@@H]2O[C@@H](CC(=O)NCCCN3CCOCC3)CC[C@H]21
  1, 1.0, 2
> C[C@H]1CN([C@@H](C)CO)C(=O)Cc2cc(NC(=O)CCN3CCOCC3)ccc2O[C@H]1CN(C)C(=O)NC1CCCCC1
  -6, 0.0, -6
> CCS(=O)(=O)Nc1ccc2c(c1)C(=O)N(C)[C@@H]1CC[C@@H](CC(=O)NC)O[C@@H]1CO2
  1, 0.3, 2
> CCOC(=O)N(C)C[C@@H]1OCc2ccccc2-c2c(n(C)c3ccccc23)C(=O)N([C@H](C)CO)C[C@@H]1C
  ., ., ?
> CNC[C@@H]1OCc2cnnn2CCCC(=O)N([C@H](C)CO)C[C@H]1C
  -3, 8.1, 5
> C/C=C/c1ccccc1[C@@H]1[C@@H](C#N)N(C(=O)CN2CCOCC2)[C@H]1CO
  6, 5.9, 12
> CCS(=O)(=O)N1[C@H](CO)[C@@H](c2ccc(-c3cccc(F)c3)cc2)[C@@H]1C#N
  0, -0.8, -1
> CC=Cc1ccc2n(c1=O)C[C@H]1[C@H](CO)[C@@H](C(=O)NCCC)N(Cc3ccccn3)[C@@H]21 (mixture of isomers)
  0, -0.5, 0
> COc1cccc(NC(=O)N(C)C[C@@H]2Oc3ncc(C#Cc4cccnc4)cc3C(=O)N([C@H](C)CO)C[C@H]2C)c1
  0, -3.0, -3
> COc1ccc2c3c([nH]c2c1)[C@H](CO)N(Cc1ccccc1OC)CC31CN(C(C)=O)C1
  ., ., ?
> CN1CCN(C(=O)C[C@H]2CC[C@H]3[C@@H](COC[C@@H](O)CN3Cc3ccc4c(c3)OCO4)O2)CC1
  -4, 22, 18
> O=C(C[C@@H]1CC[C@@H]2[C@H](COC[C@H](O)CN2C(=O)c2ccc3c(c2)OCO3)O1)NCCN1CCCCC1
  9, 0.4, 10
> CO[C@H](CN(C)C(=O)c1cc(Cl)cc(Cl)c1)[C@@H](C)CN(C(=O)Nc1ccc(F)cc1)[C@@H](C)CO
  2, 5.1, 8
> N#C[C@@H]1[C@@H](c2ccc(C#Cc3ccccc3F)cc2)[C@@H](CO)N1C(=O)C1CCCCC1
  -4, 4.7, 0
> COCCNC(=O)[C@H]1[C@H](CO)[C@H]2Cn3c(ccc(-c4ccccc4)c3=O)[C@@H]1N2C
  -4, -0.2, -4
> Cc1ccc(S(=O)(=O)N[C@@H]2CC[C@H](CCn3cc(C4(O)CCCC4)nn3)O[C@H]2CO)cc1
  3, 3.6, 7
> CC(C)C(=O)Nc1ccc2c(c1)C(=O)N(C)[C@H]1CC[C@H](CC(=O)NCC3CC3)O[C@H]1CO2
  -9, 6.8, -3
> CCS(=O)(=O)N1CC2(C1)[C@H](c1ccccc1)[C@H](CO)N2CCC(F)(F)F
  -2, -0.9, -3
> C[C@@H]1CN([C@H](C)CO)C(=O)c2cc(C3=CCCC3)cnc2O[C@@H]1CN(C)C(=O)c1ccc2c(c1)OCO2
  4, -2.8, 1
> CC(C)NC(=O)Nc1ccc2c(c1)C(=O)N([C@@H](C)CO)C[C@@H](C)[C@H](CN(C)C(=O)C1CCCCC1)OCCCC[C@@H](C)O2
  0, 4.0, 4
> COc1ccccc1-c1cccc(-c2nc(C(=O)Nc3nccs3)cc3c2[C@H](CCO)N(C(C)=O)C3)c1
  3, 0.9, 4
> CN(C)CC#Cc1ccc([C@H]2[C@@H](CO)N3CCCCN(C(=O)C4CCC4)C[C@H]23)cc1
  13, 2.7, 16
> N#C[C@H]1[C@@H](c2ccccc2/C=C/c2ccccc2)[C@@H](CO)N1S(=O)(=O)c1ccc(F)cc1
  34, -28, 6
> COc1ccc(S(=O)(=O)Nc2ccc3c(c2)C(=O)N([C@@H](C)CO)C[C@H](C)[C@H](CN(C)S(=O)(=O)c2ccc(Cl)cc2)OCCCC[C@H](C)O3)cc1
  1, -2.3, -1
> CC(C)NC(=O)N1C[C@@H]2[C@H](c3ccccc31)[C@H](CO)N2C(=O)Nc1cccc(F)c1
  -3, 0.3, -3
> CC(C)C(=O)Nc1ccc2c(c1)C(=O)N(C)[C@H]1CC[C@H](CC(=O)NCc3ccc(F)cc3)O[C@H]1CO2
  -3, 1.3, -2
> CN(C)c1ccc2c(c1)[C@@H]1C[C@@H](CC(=O)N3CCc4ccccc4C3)O[C@@H](CO)[C@@H]1O2
  5, -6.4, -2
> COc1ccc2c3c(n(C)c2c1)[C@@H](CO)N(Cc1ccccc1Cl)CC31CCN(C(=O)CN(C)C)CC1
  ., ., ?
> c1ccc(CN2C[C@@H]3N[C@H](C2)C3c2ccc(-c3ccncc3)cc2)cc1 (stereo partly specified)
  -12, 7.9, ?
> C/C=C/c1ccc([C@H]2[C@@H](CO)N3C(=O)CN(C(=O)c4ccc(F)cc4)C[C@@H]23)cc1
  3, 3.6, 7
> N#C[C@H]1[C@@H](c2ccc(C#Cc3ccccc3F)cc2)[C@@H](CO)N1C(=O)C1CCC1
  2, 1.9, 4
> CO[C@H]1CN(C)C(=O)c2cc(NC(=O)c3ccc(F)cc3)ccc2OC[C@@H](C)NC[C@H]1C
  5, 3.9, 9
> CN1C(=O)c2cc(NC(=O)c3ccc(F)cc3)ccc2OC[C@H]2O[C@H](CC(=O)N3CCOCC3)CC[C@@H]21
  9, -7.8, 2
> COc1ccc(-c2ccc([C@H]3[C@H](C#N)N(C(=O)C4CC4)[C@H]3CO)cc2)cc1
  -6, 3.4, -3
> C[C@H]1CN([C@@H](C)CO)C(=O)c2cc(Br)cnc2O[C@H]1CN(C)Cc1ccc(Oc2ccccc2)cc1
  1, 0.8, 2
> CN1C(=O)c2cc(NC(=O)Cc3cccs3)ccc2OC[C@H]2O[C@H](CC(=O)NCc3ccc(-c4ccccc4)cc3)CC[C@H]21
  -5, 2.7, -3
> Cc1ccccc1S(=O)(=O)N1CC(=O)N2[C@H](C1)[C@@H](c1ccc(C#CCN(C)C)cc1)[C@@H]2CO
  ., ., ?
> C[C@@H]1CN([C@H](C)CO)C(=O)CCCn2nncc2CO[C@H]1CN(C)Cc1ccc(O)cc1
  -2, 1.3, -1
> C[C@H]1CN([C@@H](C)CO)C(=O)CCCn2nncc2CO[C@@H]1CN(C)C(=O)Nc1ccc(N2CCCCC2)cc1
  -5, 6.7, 2

# Next part; it opens with the six that closed the last part.
# Results follow in this order: DUX4 txn inh difference, DUX4 txn inh control, DUX4 txn inh
> COc1ccc(-c2ccc([C@H]3[C@H](C#N)N(C(=O)C4CC4)[C@H]3CO)cc2)cc1
  -6, 3.4, -3
> C[C@H]1CN([C@@H](C)CO)C(=O)c2cc(Br)cnc2O[C@H]1CN(C)Cc1ccc(Oc2ccccc2)cc1
  1, 0.8, 2
> CN1C(=O)c2cc(NC(=O)Cc3cccs3)ccc2OC[C@H]2O[C@H](CC(=O)NCc3ccc(-c4ccccc4)cc3)CC[C@H]21
  -5, 2.7, -3
> Cc1ccccc1S(=O)(=O)N1CC(=O)N2[C@H](C1)[C@@H](c1ccc(C#CCN(C)C)cc1)[C@@H]2CO
  ., ., ?
> C[C@@H]1CN([C@H](C)CO)C(=O)CCCn2nncc2CO[C@H]1CN(C)Cc1ccc(O)cc1
  -2, 1.3, -1
> C[C@H]1CN([C@@H](C)CO)C(=O)CCCn2nncc2CO[C@@H]1CN(C)C(=O)Nc1ccc(N2CCCCC2)cc1
  -5, 6.7, 2
> CCCN1[C@@H]2c3ccc(/C=C/c4ccccc4)c(=O)n3C[C@H]1[C@H](CO)[C@H]2C(=O)NCc1ccccn1
  1, -5.6, -5
> CS(=O)(=O)Nc1ccc2c(c1)[C@H]1C[C@@H](CC(=O)NCCN3CCCCC3)O[C@@H](CO)[C@H]1O2
  -3, 0.8, -2
> O=C(c1ccc(F)cc1)N1CCCCN2[C@H](CO)[C@H](c3ccc(-c4ccccc4)cc3)[C@@H]2C1
  -4, -5.0, -9
> CNC[C@@H]1Oc2ncc(-c3ccccc3C)cc2C(=O)N([C@H](C)CO)C[C@H]1C
  1, -1.7, -1
> O=C(Nc1cc(F)ccc1F)N1C[C@H]2[C@@H](c3ccccc31)[C@H](CO)N2CC1CCCC1
  -2, 3.8, 2
> O=C(C[C@@H]1CC[C@H]2[C@@H](COC[C@@H](O)CN2S(=O)(=O)c2ccccc2)O1)NCc1ccc(-c2ccccc2)cc1
  0, -1.1, -1
> CO[C@H](CN(C)S(=O)(=O)c1ccc(C)cc1)[C@H](C)CN(Cc1ccccc1Cl)[C@H](C)CO
  1, 5.5, 7
> COc1ccc2c3c([nH]c2c1)[C@H](CO)N(C(=O)c1cccc(F)c1)CC31CN(S(=O)(=O)c2cccs2)C1
  -1, -8.0, -9
> COCCNC(=O)C[C@@H]1CC[C@@H]2[C@H](COC[C@@H](O)CN2Cc2ccc(Cl)c(Cl)c2)O1
  0, 2.3, 3
> C[C@@H]1CCCCO[C@H](CN(C)CC2CCCCC2)[C@H](C)CN([C@H](C)CO)C(=O)c2cc(NS(C)(=O)=O)ccc2O1
  0, -1.2, -1
> CCc1csc(N2[C@@H](C#N)[C@@H](c3ccccc3-c3cccc(F)c3)[C@@H]2CO)n1
  ., ., ?
> Cc1ccc(-c2ccc([C@@H]3[C@@H](CO)N4C(=O)CN(C(=O)Nc5cccc(F)c5)C[C@H]34)cc2)cc1
  10, -7.6, 3
> COc1ccc2c3c([nH]c2c1)[C@H](CO)NCC31CCN(C(=O)Cc2ccccc2)CC1
  -3, 4.3, 1
> CC(=O)N1Cc2cc(C(=O)NCc3cc(F)cc(F)c3)nc(-c3cccc(C4=CCCC4)c3)c2[C@@H]1CCO
  -2, 0.5, -2
> O=C(N[C@H]1C=C[C@H](CC(=O)N2CCN(c3ccccc3)CC2)O[C@H]1CO)c1ccccc1
  0, 1.9, 2
> COc1ccc2c3c(n(C)c2c1)[C@@H](CO)N(CC1CC1)CC31CN(C(=O)c2ccccc2)C1
  -30*, -2.4*, -32*
> O=C(C[C@H]1CC[C@H]2[C@@H](COC[C@@H](O)CN2C(=O)Nc2cccc(F)c2)O1)NCCCN1CCOCC1
  0, 5.1, 5
> Cn1cnc(S(=O)(=O)N2C[C@H](O)COC[C@H]3O[C@H](CC(=O)NC4Cc5ccccc5C4)CC[C@@H]32)c1
  10, 1.6, 12

# Screening results: PubChem BioAssay, Broad Institute
